ugtP null kill – growth inhibition of ugtP-null S. aureus, primary screen, RN4220 ugtP deletion, OD600. AID 1259309, 2017. growth inhibition, % (test concentration not listed). 16 h; some inactives read as strong as hits. actives 0.54% (n = 330,000);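 active means z-score under -3 and OD600 up to 0.15 on both plates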;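 further: plate controls were untreated wells for no effect and antibiotic for full effect; wells of about 80 µL received 100 nL stock; the first replicate is given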
PrP UTR inh – inhibition of PrP 5' UTR reporter expression; cell-based PrP 5' UTR mRNA reporter, plate reader; inhibition, % (no concentration beside the values); actives 0.35% (n = 340,000); AID 488862, 2010;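 active means every replicate at 50% or more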;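 further: 0 = median of the neutral control wells; tested in H4 reporter cells; numbers are from one replicate; inactives centre near -14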
Bead autofluor – compound fluorescence in toxin protease inhibitor counterscreen. compound autofluorescence counterscreen, microsphere flow cytometry; stronger effect = higher value. fluorescence intensity (test concentration not listed). actives 3.1% (n = 360,000). AID 624483;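 active means at least 3 SD above the mean of all compounds, about 16000 in these data; inconclusive means too few beads counted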;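 further: 100 nL of 1 mM stock went into each well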
Mtb hypoxia inh – PubChem AID 1159583. M. tuberculosis hypoxia-regulated fluorescent reporter, fluorescence. fluorescence inhibition, % (no concentration beside the values). actives 0.1% (n = 300,000);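 active means 35 to 45% if threefold the growth effect, above 45% if 1.5-fold the growth effect; inactive means the rest, general growth blockers included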;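 further: wells of about 50 µL received 100 nL stock; 0% = vehicle wells and 100% = reference inhibitor wells; whole bacteria with a GFP reporter of the hypoxia response; strong numbers were not always called active; many hits fall short of the cut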
Sa RN4220 lethal – growth inhibition of S. aureus RN4220, primary screen, OD600 | inhibition, % (test concentration not listed) | 16 h | actives 0.33% (n = 330,000) | AID 1259311, 2017;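 active means z-score of -3 or lower and OD600 up to 0.18 on both plates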;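 further: plate controls were untreated cells for no effect and reference antibiotic for full effect; stock transfer was 100 nL into about 80 µL; one replicate is shown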
BJeLR lethal – MLPCN primary cell-based screen for lethality selective to Ras in HRASV12 cells. inhibition, % (test concentration not listed). actives 0.17% (n = 300,000). AID 1554, 2009. BJeLR (HRASV12) viability, CellTiter-Glo ATP luminescence, 48 h; reference of the scale not given here;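 active means replicate mean above 50%; inconclusive means above 50% but judged a plate artefact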;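 further: 50 nL library stock added to about 25 µL; numbers are from one replicate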
Mtb hypoxia inh growth – second read-out of Mtb hypoxia inh, no call of its own (marks repeat the call); growth inhibition, %; measured here: M. tuberculosis growth (absorbance);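 0% = vehicle and 100% = reference antibiotic; read after six days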
Numbers without * were called inactive; u = inconclusive; x = no result given.

Each structure is followed by: ugtP null kill	PrP UTR inh	Bead autofluor	Mtb hypoxia inh	Mtb hypoxia inh growth	Sa RN4220 lethal	BJeLR lethal
1: O=C(CCc1nc2ccccc2c(=O)[nH]1)N1CCN(S(=O)(=O)c2ccc(Cl)c(C(F)(F)F)c2)CC1
 : 3	-5	5698	-1	-5	0.2	3
2: N#Cc1ccc(Oc2cccnc2)cc1C#N
 : -5	-2	3792	10	5	3.2	-3
3: O=C(NCc1ccc(Cl)cc1)c1cc(=O)[nH]c2ccccc12
 : 0	-24	3644	5	0	-1.2	3
4: O=C(c1cccc(C(F)(F)F)c1)N1CCC(O)(CS(=O)(=O)Cc2ccccc2Cl)CC1
 : -8	-13	20377*	-1	11	2.7	-8
5: COC(C(=O)Nc1ccc(F)cc1F)c1ccccc1 (stereo unspecified)
 : 6	-16	2495	x	x	5.5	-9
6: CC1CCc2cc(F)ccc2N1C(=O)c1cccnc1 (stereo unspecified)
 : -3	-16	4568	2	19	1.4	-3
7: COC(=O)c1ccc(C(=O)OC)c(NC(=O)COC(=O)C2CC2C)c1 (stereo unspecified)
 : -6	-9	4552	1	6	-4.5	-13
8: O=C(COc1ccc(-n2cnnn2)cc1)NC1CCCCC1
 : -7	-15	6043	-3	4	-4.8	-2
9: CCc1cc2c(Nc3ccc(O)cc3)nc(C)nc2s1
 : -2	-19	3826	x	x	0.2	1
10: CCOc1cc(/C=C2\SC(=NC)N(C)C2=O)cc(Cl)c1OC(C)=O
 : 7	-11	2928	0	-3	2.5	-14

Each structure is followed by: ugtP null kill	PrP UTR inh	Bead autofluor	Mtb hypoxia inh	Mtb hypoxia inh growth	Sa RN4220 lethal	BJeLR lethal
11: Cc1ccc(NC(=S)N2CCCCCC2)cc1
 : 3	-36	4080	21	-1	2.1	-8
12: CC(C)C(=O)Nc1ccccc1N1CCN(S(C)(=O)=O)CC1
 : -3	-35	5977	-3	-6	-1.7	3
13: CSc1ccccc1NC(=O)CN(C)CC(=O)Nc1ccccc1F
 : 3	-17	2381	3	4	3.4	-2
14: CSc1nnc(C)c(/C=C/NOCc2ccc(Cl)cc2)n1
 : 6	-8	3941	6	5	5.4	3
15: O=C(OCC(=O)N1CCc2ccccc21)[C@@H]1CC(O)CN1S(=O)(=O)c1ccccc1[N+](=O)[O-] (stereo partly specified)
 : 8	-28	u	1	7	4.4	x
16: Cc1c(N2C(=O)C(=O)/C(=C(/O)c3ccccc3)C2c2ccc(F)cc2)c(=O)n(-c2ccccc2)n1C (stereo unspecified)
 : 0	-16	2134	-3	1	-0.7	-3
17: Cc1cc[n+](CC(=O)Nc2nc3ccccc3s2)cc1
 : 0	-38	4761	-1	1	1.9	6
18: CCNS(=O)(=O)c1c(C)cc(C)c(N(C)S(=O)(=O)c2ccccc2)c1C
 : -1	-81	2248	4	0	7.6	-1
19: Cn1cc([N+](=O)[O-])c(C(=O)Nc2ccn(C34CC5CC(CC(C5)C3)C4)n2)n1
 : 7	-1	2558	1	-14	-1.3	1
20: Cc1ccnc(NC(=O)c2c(-c3ccccc3Cl)noc2C)c1
 : 6	-20	2742	-3	5	0.3	4

Some of the entries so far, as tab-separated lines:
nr	SMILES	ugtP null kill	PrP UTR inh	Bead autofluor	Mtb hypoxia inh	Mtb hypoxia inh growth	Sa RN4220 lethal	BJeLR lethal
14	CSc1nnc(C)c(/C=C/NOCc2ccc(Cl)cc2)n1	6	-8	3941	6	5	5.4	3
15	O=C(OCC(=O)N1CCc2ccccc21)[C@@H]1CC(O)CN1S(=O)(=O)c1ccccc1[N+](=O)[O-] (stereo partly specified)	8	-28	u	1	7	4.4	x
16	Cc1c(N2C(=O)C(=O)/C(=C(/O)c3ccccc3)C2c2ccc(F)cc2)c(=O)n(-c2ccccc2)n1C (stereo unspecified)	0	-16	2134	-3	1	-0.7	-3
17	Cc1cc[n+](CC(=O)Nc2nc3ccccc3s2)cc1	0	-38	4761	-1	1	1.9	6
18	CCNS(=O)(=O)c1c(C)cc(C)c(N(C)S(=O)(=O)c2ccccc2)c1C	-1	-81	2248	4	0	7.6	-1

New compounds follow
Each structure is followed by: ugtP null kill	PrP UTR inh	Bead autofluor	Mtb hypoxia inh	Mtb hypoxia inh growth	Sa RN4220 lethal	BJeLR lethal
21: COc1ccc(OCc2cccc(C(=O)O)c2)cc1
 : -4	93*	u	3	6	-9.5	42
22: CC(C(=O)O)n1c(-c2ccn[nH]2)n[nH]c1=S (stereo unspecified)
 : 9	-6	3960	12	13	5.2	0
23: Cc1sc2ccccc2[n+]1CCC(C)S(=O)(=O)[O-] (stereo unspecified)
 : 1	-9	2320	2	3	6.5	-1
24: O=C(Cn1c(=O)oc2ccccc21)Nc1ccc(S(=O)(=O)N2CCCCC2)cc1
 : -2	9	4648	x	x	2.0	2
25: O=[N+]([O-])c1ccccc1S(=O)(=O)Nc1cccc(-c2ccc(N3CCOCC3)nn2)c1
 : 1	-32	6351	-1	8	2.7	1
26: COc1ccc(C(=O)NCCc2cccc(Cl)c2)cc1OC1CCN(C(C)=O)CC1
 : 3	18	4883	1	5	1.2	-3
27: O=C(O)c1cc(N2C(=O)C=CC2=O)cc(N2C(=O)C=CC2=O)c1
 : 2	-16	3955	8	11	3.7	x
28: O=C(COc1ccc2c(C(F)(F)F)cc(=O)oc2c1)Nc1ccc2c(c1)OCCO2
 : -1	-27	23061*	-5	2	-0.4	-20
29: CC(=O)Nc1ccc(S(=O)(=O)NC(C)(C#N)C2CC2)cc1 (stereo unspecified)
 : 6	-15	3569	12	4	5.8	-6
30: O=C(C(Cc1ccccc1)N1C(=O)C2C3C=CC(C3)C2C1=O)N1CCCCCC1 (stereo unspecified)
 : 0	5	4481	x	x	5.5	-1

Each structure is followed by: ugtP null kill	PrP UTR inh	Bead autofluor	Mtb hypoxia inh	Mtb hypoxia inh growth	Sa RN4220 lethal	BJeLR lethal
31: O=[N+]([O-])c1cccc(OCc2cn3cccnc3n2)c1
 : 2	-24	3183	12	10	3.0	-5
32: O=C(CSc1nc2ccccc2c(=O)n1-c1ccc(F)cc1)Nc1ccc(C(=O)O)cc1
 : 5	x	3640	2	2	5.0	0
33: CCOC(=O)C1(CCc2ccccc2)CCN(C(=O)C2=C(C)OCCO2)CC1
 : 7	-38	4674	11	2	3.2	-1
34: O=C(CSc1nnc(-c2ccccc2Cl)n1Cc1ccco1)Nc1ccc2c(c1)OCCO2
 : -1	-19	2504	x	x	7.2	-4
35: Cc1occc1C(=O)N1CCN(c2ccc(Cl)c(Cl)c2)CC1
 : 6	-28	8184	9	3	2.2	-1
36: COc1ccccc1NC(=O)CSc1nc(=O)n(CCN2CCOCC2)c2c1CCC2
 : 17	-34	5185	4	5	4.4	2
37: CCn1c(=S)sc2c(=O)n(CC(=O)Nc3ccc(Cl)cc3)c(C)nc21
 : -11	-1	5331	5	9	-5.9	3
38: CC1(C)C(=O)Nc2ccccc2N1C(=O)CSc1nnc2c(Cl)cc(Cl)cn12
 : 1	-20	1950	-2	1	0.7	1
39: Cc1ccc(C)c2[nH]c(=O)c(C(c3nnnn3C(C)(C)C)N3CC=C(c4ccc(F)cc4)CC3)cc12 (stereo unspecified)
 : -22	-14	6685	-5	4	11	x
40: CC(C)Cc1cc(C(=O)N2CCC(N3CCC(C(=O)N4CCCC4)CC3)CC2)n[nH]1
 : 1	-23	4712	12	14	-1.0	17

Each structure is followed by: ugtP null kill	PrP UTR inh	Bead autofluor	Mtb hypoxia inh	Mtb hypoxia inh growth	Sa RN4220 lethal	BJeLR lethal
41: CCOCCCNC(=O)/C(C#N)=C/c1ccc(Cl)c([N+](=O)[O-])c1
 : -1	-33	4153	2	-3	0.9	4
42: COc1cccc(CCc2nnc(CCC(=O)N(C)C3CC(C)(C)NC(C)(C)C3)o2)c1
 : 5	-9	4692	7	3	2.5	-7
43: Nc1nc(N)nc(-c2ccccc2)n1
 : 1	-13	3065	3	-2	4.6	13
44: CCOc1ccc(C2Nc3ccc4ccccc4c3-c3c2c(=O)oc2ccccc32)cc1 (stereo unspecified)
 : 22	-16	12808	2	0	1.0	-7
45: CC(C)CC(=O)Nc1ccccc1N1CCN(c2ccccc2)CC1
 : 14	-29	4408	9	9	-1.5	5
46: COc1ccc(N2CCN(C(=O)C(C)(C)Oc3ccc(Cl)cc3)CC2)cc1
 : 3	-25	5495	4	6	11	-10
47: CN1CCC(NC(=O)Nc2cccc(C(F)(F)F)c2)CC1
 : -6	-12	3516	6	1	-1.6	x
48: NC(=O)c1ccccc1OCc1cccc2ccccc12
 : 5	-16	3983	3	6	11	0
49: O=c1[nH]c(C2CCCN(S(=O)(=O)c3ccc(F)cc3)C2)nc2c1nnn2Cc1ccc(F)cc1 (stereo unspecified)
 : 2	-6	3463	-2	0	8.2	-18
50: CC1Sc2ccc(S(=O)(=O)N3CCC(C(=O)NCCc4ccccc4)CC3)cc2NC1=O (stereo unspecified)
 : 1	-6	5417	8	17	0.7	-2

Each structure is followed by: ugtP null kill	PrP UTR inh	Bead autofluor	Mtb hypoxia inh	Mtb hypoxia inh growth	Sa RN4220 lethal	BJeLR lethal
51: O=C(c1cc(-c2ccc(Br)cc2)nc2ccccc12)N1CCN(c2ccccc2O)CC1
 : -24	-8	4254	-4	-3	-2.7	5
52: O=C(O)CCc1ccc(S(=O)(=O)Nc2ccccc2C(=O)NCCc2ccccc2)cc1
 : 13	-51	3883	0	-3	2.3	-11
53: Cc1ccc(NC(=O)CC(C(=O)O)c2ccccc2)cc1 (stereo unspecified)
 : 2	-17	2111	x	x	3.2	4
54: COC(=O)Nc1csc2c1NC(=O)CCCC2
 : 9	-11	2756	7	3	6.4	0
55: Cn1nc(C(=O)NCc2ccc(Cl)cc2)c2c1-c1ccccc1S(=O)(=O)C2
 : 7	-13	5226	4	1	1.4	-4
56: O=C(N=NC(=O)c1ccc2c(O)n(CC3CCCO3)c(O)c2c1)c1cccnc1 (stereo unspecified)
 : 5	-21	4191	3	4	4.6	-13
57: O=C(NNC(=O)c1ccncc1)c1ccncc1
 : -2	-4	22444*	-3	-9	1.9	x
58: Cc1ccc(OCCNC(=O)c2ccco2)cc1C
 : -4	-60	2967	22	9	-10.0	-1
59: CCS(=O)(=O)N1Cc2ccccc2CC1C(=O)OCC(=O)Nc1ccc(SC(F)F)cc1 (stereo unspecified)
 : -4	-6	9224	6	4	0.9	-6
60: CCCCNC(=O)c1ccc(CS(=O)(=O)c2cccc(C(F)(F)F)c2)o1
 : -3	1	21163*	-4	6	-0.2	5

Each structure is followed by: ugtP null kill	PrP UTR inh	Bead autofluor	Mtb hypoxia inh	Mtb hypoxia inh growth	Sa RN4220 lethal	BJeLR lethal
61: CCN1CCN(C2=C(NS(=O)(=O)c3ccc(C)cc3)C(=O)c3ccccc3C2=O)CC1
 : 2	-25	5301	-4	6	9.1	-8
62: O=C(Nc1ccccc1)N1CCC(C(=O)N2CCN(Cc3ccccc3)CC2)CC1
 : 11	-11	x	4	-6	3.1	x
63: COc1cc(OC)c(OC)cc1/C=N/NC(=O)c1cnccn1
 : x	-9	4096	x	x	x	-1
64: CCC(C)NC(=O)C1CC(c2cccc(OC)c2)=NO1 (stereo unspecified)
 : 8	-3	11559	8	5	2.4	1
65: O=C(NC(=S)Nc1ccc(Cl)cc1)c1cncc(Br)c1
 : -1	-35	6096	17	8	3.4	9
66: COc1ccc(C2=NN(CCC(=O)NCC3CCCO3)C(=O)CC2)cc1 (stereo unspecified)
 : 2	1	5773	-4	4	0.5	1
67: CC1(C)CC2CC(C)(CN2C(=O)c2cc(-c3ccccc3)on2)C1 (stereo unspecified)
 : -10	-18	3613	6	14	2.8	-2
68: COc1ccc(C)cc1N1CC(C(=O)Nc2ccccc2N2CCCCC2)CC1=O (stereo unspecified)
 : -7	-6	3664	-18	0	-3.9	x
69: COc1ccc(C2CC(C(F)(F)F)n3nc(C(=O)Nc4ccc5c(c4)OCO5)cc3N2)cc1 (stereo unspecified)
 : -5	-15	2198	x	x	-1.5	2
70: CC(=O)Nc1ccc(S(=O)(=O)N[C@@H](C)C(=O)N2CCN(c3ccccn3)CC2)cc1
 : 4	-19	4136	-3	-5	3.6	2

Screening data (PubChem)
